Screening data (PubChem BioAssay)
Cruzain inh noDet: qHTS Assay for Promiscuous and Specific Inhibitors of Cruzain (without detergent) | purified cruzain, Z-FR-AMC fluorescence, no detergent | Cruzipain (Trypanosoma cruzi), P25779 | Potency, µM, for inactives: max response, negative = inhibition, usual class: inhibitors | 200,000 tested, 2.3% active | AID 1476, 2009;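 further: plate controls were enzyme without inhibitor for no effect and buffer without enzyme for full effect; nearly all actives have a fitted effect of over 40% in size; top concentration of the series not given in the record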
Target sequence (P25779 123-467 limits assumed): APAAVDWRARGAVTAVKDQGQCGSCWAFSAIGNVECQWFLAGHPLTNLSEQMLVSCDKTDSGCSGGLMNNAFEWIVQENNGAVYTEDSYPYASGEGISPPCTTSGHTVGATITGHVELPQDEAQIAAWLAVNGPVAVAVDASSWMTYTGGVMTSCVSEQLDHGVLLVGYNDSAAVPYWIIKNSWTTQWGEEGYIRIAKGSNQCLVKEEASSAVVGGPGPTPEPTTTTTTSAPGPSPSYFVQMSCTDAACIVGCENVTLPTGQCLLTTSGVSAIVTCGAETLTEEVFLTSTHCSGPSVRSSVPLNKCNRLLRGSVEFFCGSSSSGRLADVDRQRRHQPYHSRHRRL
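Detergent-free condition (0.00005% Triton X-100) in acetate buffer pH 5.5 with DTT. 1.5 nM enzyme and compound were pre-mixed 15 min, then 2 uM Z-FR-AMC substrate added; reaction progress from fluorescence change between first and third reads (60 s).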
2A StopGo: High Throughput Screening for Foot and Mouth Disease Virus Antivirals. AID 1159524, 2015. Potency, µM (series often up to 57.9 µM), for inactives: at the top dose signal change, negative = less light. human cells with a luciferase reporter of 2A StopGo recoding; control for the full effect not named in the record. 410,000 tested, 1.2% active; active = well fitted falling curve with a large enough effect; inconclusive = small, poorly fitted or top-dose-only effect; inactive = no such curve, though single readings can be large or run the other way; tested in HEK293T cells; further: nearly all actives have a fitted effect of over 45% in size; luciferase light after 4 h
Cruzain Triton: qHTS Assay for Promiscuous and Specific Inhibitors of Cruzain (with detergent); Cruzipain (Trypanosoma cruzi), P25779; purified cruzain, Z-FR-AMC fluorescence, 0.01% Triton; Potency, µM, without a hit: max response, negative = inhibition, most hits filed as inhibitors; 200,000 tested, 0.43% active;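 further: plate controls were neutral wells for no effect and buffer without enzyme for full effect; nearly all actives have a fitted effect of over 40% in size; top concentration of the series not given in the record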
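Detergent-containing arm of a paired screen for aggregation-based inhibition: 0.01% Triton X-100 present. Cruzain at 1.5 nM cleaved 2 uM Z-FR-AMC at pH 5.5 with 5 mM DTT; AMC fluorescence gain over 60 s measured activity.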
* hit, by the source's call; ? = inconclusive; & = joins results of further samples; [ ] = dose if it differs, or a comment. Unless noted, the call rests on the fitted dose curve; in most records, active means well fitted curve in the direction sought with a large enough effect; inconclusive means small, poorly fitted or top-dose-only effect, or another doubt; inactive means no such curve, though single readings can be large; an effect the other way counts as inactive or inconclusive. Unless noted, on the % scale 0 is the no-effect control and ±100 the full control effect; potency means the concentration at half of the fitted maximal effect. A portion of the library. The share of hits here may be higher or lower than overall.

Values in the order: Cruzain inh noDet, 2A StopGo, Cruzain Triton
1. CC(=O)OC1CC(OC(C)=O)[C@]2(C)C(CC(OC(C)=O)[C@]3(C)C2CC[C@@]2(C)C(c4ccoc4)OC(=O)C4O[C@]432)C1(C)C (stereo partly drawn)
 : ?, -16%, 0.6%
2. COc1ccccc1CNc1nc(-c2ccc3c(c2)OCO3)nc2ccccc12
 : ?, -18%, -2.8%
3. CC(=O)N1CCC2(CCN(Cc3cc(C(F)(F)F)cc(C(F)(F)F)c3)CC2)CC1
 : -5%, 10%, 4.3%
4. CS(=O)(=O)Nc1cccc(-c2cc(NCc3cccs3)ncn2)c1
 : -8%, 8%, -25%
5. CS(C)(=O)=O
 : 0%, 6%, -3.6%
6. ClC1=C(Cl)C2(Cl)C3C4C=CC(C4)C3C1(Cl)C2(Cl)Cl (stereo not drawn)
 : 8%&4%, -26%, 7.5%&5.4%
7. C=CCCCCCCCCCCCc1ccco1
 : 7%, -5%, 1.9%
8. NC(C(=O)O)C(O)C(=O)O (stereo not drawn)
 : -7%, -8%, 2.7%
9. Cc1nc2cnc(N3CCN(C)CC3)nc2n(C[C@H]2CCCO2)c1=O
 : ?, -18%, ?
10. CNNC
 : -4%, 22%, 0.3%
11. O=C(Oc1ccccc1)N1CCC2(CCCN(c3ccc(-c4ccccc4)cc3)C2)CC1
 : 13µM*, -1%, 0.4%
12. CC[C@](N)(CCC(=O)O)C(=O)O
 : 2%, -1%&-12%, 0.2%
13. C/C=C(\C)C(=O)O[C@H]1CC(C)=C2C(=O)C=C(C)C2[C@@H]2OC(=O)[C@@](C)(OC(=O)C=C(C)C)C21 (stereo partly drawn)
 : ?, -2%, 0.8%
14. O=C(c1ccncc1)N1CCC2(CCCN(Cc3nccs3)C2)CC1
 : 2%, -4%, 0.4%
15. FC(F)(F)c1ccccc1-c1cncnc1NCc1cccs1
 : 8%, -28%, 5.2%
16. O=C(c1cc(C(F)(F)F)cc(C(F)(F)F)c1)N1CCC2(CC1)CCN(c1ccccc1)CC2
 : 1%, 6%, 3.9%
17. CS(=O)(=O)Nc1cccc(-c2cncnc2Nc2ccccc2)c1
 : 9%, -6%, 5.8%
18. N#Cc1cc2[nH]c(=O)c(=O)[nH]c2cc1[N+](=O)[O-]
 : 4%, 4%, -8.2%
19. CC(C)CN1CC[C@@]2(CCCN(C(=O)c3csnn3)C2)C1
 : ?, -11%, ?
20. COc1cccc(O)c1O
 : -11%, ?, 3.1%

One compound at a time, from the list above. Values in the order: Cruzain inh noDet | 2A StopGo | Cruzain Triton
CS(=O)(=O)Nc1cccc(-c2cncnc2Nc2ccccc2)c1 reads 9% | -6% | 5.8%
CS(C)(=O)=O reads 0% | 6% | -3.6%

(next part)
Values in the order: Cruzain inh noDet, 2A StopGo, Cruzain Triton
21. COCCNC(=O)COc1ccc(OCCNC[C@@H](O)COc2ccccc2)cc1
 : 0%, -23%, -1.3%
22. CCCCCCCCCCCCCCC[C@@H](O)[C@H](CO)NC(=O)CCCCCCC
 : -17%, -12%[6.7 µM], 1.0%
23. COCCn1c(=O)c(CCc2ccccc2)nc2cnc(N(C)C)nc21
 : ?, 7%, -2.5%
24. Cc1[nH]c(C)c(Cl)c(=O)c1Cl
 : 13%, -2%, 3.2%
25. Cc1noc(C)c1C(=O)N1CCC2(CCCN(Cc3nccs3)C2)CC1
 : -8%, -10%, 3.3%
26. COc1cccc(Nc2ncc3nc(C)c(=O)n(C4CC4)c3n2)c1
 : 26%, 18%, 2.7%
27. O=C(c1ccncc1)N1CCC2(CC1)CN(c1ncccn1)C2
 : -8%, 1%, -1.1%
28. CN(C)c1ccc(-c2nccc(NCc3cccs3)n2)cc1
 : -16%, 0%, -5.9%
29. CS(=O)(=O)Nc1cccc(-c2ccc3ncnc(NC4CC4)c3c2)c1
 : -5%, -26%, -2.3%
30. O=C(Nc1ccccc1)N1CC[C@@]2(CCCN(C(=O)c3cc(C(F)(F)F)cc(C(F)(F)F)c3)C2)C1
 : ?, -12%, -1.0%
31. COc1ccc2[nH]cc(CCNc3ncncc3-c3ccccc3C(F)(F)F)c2c1
 : 1%, -20%, -2.3%
32. CC(=O)NCCNc1nc(-c2cccnc2)nc2ccccc12
 : 4%, -6%, -1.0%
33. CCCCN(CC)c1c([N+](=O)[O-])cc(C(F)(F)F)cc1[N+](=O)[O-]
 : -19%, -12%, 3.8%
34. c1ccc2oc(C3=NCCN3)cc2c1
 : -14%, -9%, -0.4%
35. COc1ccc(Oc2ncc3nc(-c4cn(C)c5ccccc45)c(=O)n(C)c3n2)cc1
 : 5%, 11%, 5.4%
36. COc1cc2c(cc1OC)[C@@H]1CC(=O)[C@@H](CC(C)C)CN1CC2
 : -9%, 8%, -4.2%
37. CN(C)C(=O)c1ccc(-c2ccc3ncnc(Nc4ccc(F)cc4)c3c2)cc1
 : 3%, -8%, 7.0%
38. Cc1onc(-c2ccccc2)c1C(=O)NC1C(=O)N2C(C(=O)O)C(C)(C)S[C@@H]12 (stereo partly drawn)
 : -7%, 3%, -1.1%
39. COc1cc2c(cc1OC)C1C(=O)c3ccc4c(c3OC1CO2)C=CC(C)(C)O4 (stereo not drawn)
 : ?, ?, -1.0%
40. C=C[C@]1(C)Cc2occ(C)c2C[C@H]1C(=C)C(=O)O
 : -4%, -13%, 0.5%

Next section:
Values in the order: Cruzain inh noDet, 2A StopGo, Cruzain Triton
41. CC(=O)OC1C2C(OC(=O)Cc3ccccc3)C(C)CC2(OC(C)=O)C(=O)/C(C)=C/C2C(CC[C@@]13CO3)C2(C)C (stereo partly drawn)
 : 10%, 5%, 0.8%
42. CS(=O)(=O)N1CCC2(CCCN(Cc3cc(C(F)(F)F)cc(C(F)(F)F)c3)C2)CC1
 : 18%, -5%, -1.9%
43. COC1C=CC23c4cc5c(cc4CN(CC2O)C3C1)OCO5 (stereo not drawn)
 : -5%, ?, 0.9%
44. O=C(Nc1ccccc1)N1CC[C@@]2(CCCN(C(=O)c3csnn3)C2)C1
 : 13%, -8%, -0.7%
45. Cc1nc2cnc(Oc3cccc(Cl)c3)nc2n(CCC#N)c1=O
 : -3%, -14%, 1.6%
46. CC(=O)OCC(=O)[C@@]1(O)CCC2C3CC[C@H]4CC(O)CC[C@@]4(C)C3C(=O)C[C@]21C (stereo partly drawn)
 : 26%, -7%, 2.4%
47. COc1cccc(-c2nccc(N(C)Cc3ccco3)n2)c1
 : -7%, 3%, -2.3%
48. COc1ccccc1CNc1cc(-c2cccnc2)ncn1
 : -2%, -14%, -1.0%
49. Cc1ccccc1-c1cc(N(C)C)ncn1
 : 1%, 1%, 4.6%
50. Cn1cccc1C(=O)N1CCC[C@@]2(CCN(c3ccncc3)C2)C1
 : 0%, -6%, 3.3%
51. C[N+]1(C)CC(O)[C@H](C(=O)[O-])C1 (stereo partly drawn)
 : -5%, -4%, -2.9%
52. CN(Cc1ccco1)c1ccnc(-c2ccccc2C(F)(F)F)n1
 : 2%, -6%, 0.5%
53. O=C(c1ccncc1)N1CCC2(CCCN(c3ccccn3)C2)CC1
 : ?, -16%, 1.2%
54. Nc1nc2c(nc(Br)n2C2OC(CO)C(O)C2O)c(=O)[nH]1 (stereo not drawn)
 : -1%, 6%, 0.2%
55. CC(C)CN1CCCC2(CCN(C(=O)Oc3ccccc3)CC2)C1
 : -7%, 8%, -1.8%
56. CC(C)=CCC/C(C)=C/CC/C(C)=C/CC/C(C)=C/CO
 : -1%, -5%&26%, 1.1%
57. Clc1ccccc1-c1cc(NCc2cccnc2)ncn1
 : 2%, 22%, -4.1%
58. COc1ccc(CNc2ccnc(-c3ccccc3Cl)n2)c(OC)c1
 : -6%, 0%, -2.3%
59. CN1CC[C@@]2(CCCN(C(=O)c3ccncc3)C2)C1
 : 2%, -12%, -0.1%
60. CC(C)[C@H](CO)Nc1nc(Nc2ccc(C(=O)O)c(Cl)c2)c2ncn(C(C)C)c2n1
 : -4%, -10%, -9.3%

The list continues:
Values in the order: Cruzain inh noDet, 2A StopGo, Cruzain Triton
61. CCCCC/C=C\C/C=C\C/C=C\C/C=C\CCCC(=O)O[C@@H](CO)COC(=O)CCCCCCCCCCCCCCCCC
 : -5%, -10%[6.7 µM], 6.1%
62. Cc1cccc2c3c(ccc12)C1=C(C(=O)C3=O)C(C)CO1 (stereo not drawn)
 : ?, -21%, ?
63. CN1[C@@H]2CC[C@H]1CC(OC(c1ccc(F)cc1)c1ccc(F)cc1)C2 (stereo partly drawn)
 : 0%, -16%, 0.8%
64. CCc1cc(C(C)=O)c(O)cc1OCCCCCC(C)(C)c1nn[nH]n1
 : ?, 13%, -24%
65. CC(=O)Oc1cccc(O)c1
 : -6%, 24%, 7.9%
66. Cc1noc(C)c1-c1nc(NCc2cccs2)c2ccccc2n1
 : 3%, -9%, -1.6%
67. CC(C)CCCC(C)C1CCC2C3CC[C@H]4CC(=O)CC[C@@]4(C)C3CC[C@@]12C (stereo partly drawn)
 : -7%, -1%, 2.8%
68. CCNc1ncc2nc(-c3cccs3)c(=O)n(-c3ccccc3)c2n1
 : 18%, -13%, -0.7%
69. CCNc1ncc2nc(-c3ccc(Cl)cc3)c(=O)n(Cc3ccc(F)cc3)c2n1
 : -1%, -15%, 7.8%
70. Cc1ccccc1-c1nc(NC2CCNCC2)c2ccccc2n1
 : -1%, -9%, 2.8%
71. COc1cc2c(cc1O)-c1ccccc1CN(C)C2
 : 0%, -5%, 11%
72. Oc1ccc2c(c1)OCC1c3cc4c(cc3OC21)OCO4 (stereo not drawn)
 : -5%, 21%, -1.7%
73. CS(=O)(=O)CCNCc1nc(-c2ccc3ncnc(Nc4ccc(OCc5cccc(F)c5)c(Cl)c4)c3c2)cs1
 : -1%, 9%, 5.3%
74. CC(=O)NCCNc1ncnc2ccc(-c3c(C)noc3C)cc12
 : 1%, 11%, -2.0%
75. O=C(c1cc(C(F)(F)F)cc(C(F)(F)F)c1)N1CCC2(CC1)CCN(c1ccncc1)CC2
 : -4%, -12%, 0.6%
76. COCCn1c(=O)c(-c2cccc(F)c2)nc2cncnc21
 : 0%, -4%, -4.3%
77. C=CCN1C[C@H](C)N([C@H](c2ccc(C(=O)N(CC)CC)cc2)c2cccc(O)c2)C[C@H]1C
 : 8%, 0%, -3.2%
78. O=C(c1ccco1)N1CCC2(CC1)CCN(c1ncccn1)CC2
 : 1%, -28%, 2.2%
79. COc1ccc(-n2c(=O)cnc3cnc(N4CCNCC4)nc32)cc1
 : 7%, -17%, 0.7%
80. O=C(O)c1c(Sc2ccccc2)c2cc(Cl)ccc2n1Cc1ccc(Cl)cc1
 : ?, -24%, 28µM*

More records
Values in the order: Cruzain inh noDet, 2A StopGo, Cruzain Triton
81. CC(C)NC(=O)N1CC2(CCN(C(=O)c3cc(C(F)(F)F)cc(C(F)(F)F)c3)CC2)C1
 : ?, -4%, 6.3%
82. COCC(=O)N1CCC2(CCCN(C(c3ccccc3)c3ccccc3)C2)CC1
 : 13%, -17%, 2.4%
83. CCOC(=O)c1ncc2[nH]c3ccc(OCc4ccccc4)cc3c2c1COC
 : ?, 16µM*, -6.7%
84. COCC(=O)N1CCC[C@@]2(CCN(Cc3ccccc3)C2)C1
 : 6%, -3%, 3.4%
85. Cc1c2oc3c(C)ccc(C(=O)N[C@@H]4C(=O)N[C@@H](C(C)C)C(=O)N5CCC[C@@H]5C(=O)N(C)CC(=O)N(C)[C@@H](C(C)C)C(=O)O[C@H]4C)c3nc-2c(C(=O)N[C@@H]2C(=O)N[C@@H](C(C)C)C(=O)N3CCC[C@@H]3C(=O)N(C)CC(=O)N(C)[C@@H](C(C)C)C(=O)O[C@H]2C)c(N)c1=O
 : ?, -2%, -1.6%
86. COc1ncc2nc(-c3cccs3)c(=O)n(CCc3ccccc3)c2n1
 : 13%, -1%, -1.2%
87. Cc1ccc2c(c1)C(=O)[C@@]1(O)CCN(c3ccccc3)C1=N2
 : 5%, -5%, -3.1%
88. CC1CCC(C(C)C)[C@H](OC(=O)c2ccccc2)C1 (stereo partly drawn)
 : -4%, 3%, 5.3%
89. COc1ccc(-c2cnc(-c3cccnc3)o2)cc1
 : -7%, 33%[activator], -6.4%
90. Cc1cccc(CNc2nc(-c3cccnc3)nc3ccccc23)c1
 : 0%, -26%, -9.7%
91. NCC(O)CC(=O)O (stereo not drawn)
 : 8%, -5%, 2.7%
92. COc1ccc2c(=O)ccoc2c1
 : -10%, 20%, -2.7%
93. COc1ccc(-c2coc3cc(O)ccc3c2=O)c(OC)c1
 : -2%, 8%, 5.5%
94. Nc1ncnc2c1c(I)cn2C1OC(CO)C(O)C1O (stereo not drawn)
 : -1%, -11%&1%&-9%, 0.8%
95. COc1cccc(Cn2c(=O)cnc3cnc(N4CCOCC4)nc32)c1
 : 3%, -6%, -5.3%
